pAkt inh = Akt phosphorylation inhibition; activity change, % for hits at 50 µM; Neuro2A IGF-stimulated pAkt S473 HTRF, 20 min; hits give low values; actives 0.32% (n = 360,000); in the data active means activity change below about -80%; inconclusive means mostly about -51% to -80%; further: on the % scale 0 is the no-effect control and ±100 the full control effect
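Neuro2A cells (4,500/well, DMEM with 0.5% FBS) were treated with compound at a single 50 µM final concentration, stimulated with 6 nM IGF for 20 min at 37 °C, and lysed. Phospho-Akt Ser473 was read by HTRF as 665/615 ratio ×10^4.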
D3 antag = blocks the human D3 dopamine receptor | P35462 | D3R cells, DiscoveRx beta-arrestin luminescence, antagonist mode; hits give low values | max response, negative = inhibition, % | actives 2.5% (n = 360,000); in the data active means max response below about -50%; inconclusive means no clear call, values can overlap the other calls; further: on the % scale 0 is the no-effect control and ±100 the full control effect; mostly tested at two doses, the higher about 12 µM
Target sequence (P35462 whole entry, looked up): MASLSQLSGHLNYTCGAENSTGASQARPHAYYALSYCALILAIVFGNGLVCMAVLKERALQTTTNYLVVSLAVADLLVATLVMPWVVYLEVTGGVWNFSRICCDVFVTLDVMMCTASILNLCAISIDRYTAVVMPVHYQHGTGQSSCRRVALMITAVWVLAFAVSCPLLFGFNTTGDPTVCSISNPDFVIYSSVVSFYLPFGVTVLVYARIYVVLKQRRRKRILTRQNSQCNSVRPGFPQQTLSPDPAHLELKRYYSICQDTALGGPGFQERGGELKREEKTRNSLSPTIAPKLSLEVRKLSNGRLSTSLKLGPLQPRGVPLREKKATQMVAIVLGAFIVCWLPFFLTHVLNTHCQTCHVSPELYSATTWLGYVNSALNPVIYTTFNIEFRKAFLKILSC
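Cells plated overnight at 1500 cells/well, then exposed to library compounds with dopamine controls for 90 minutes at 37 degrees C. DiscoveRx reagent added for 30–60 minutes at room temperature; luminescence read, quantitative HTS format.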
D3 ag = D3 dopamine receptor (human) agonism | P35462 | D3R DiscoveRx beta-arrestin cells, luminescence, 90 min | max activation, % | actives 0.58% (n = 410,000); in the data active means max activation above about 30%; further: 0% is about no effect; mostly tested at two doses, the higher about 12 µM
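Agonist mode: compounds and dopamine controls were applied to plated cells for 90 min at 37 degrees C after an overnight attachment at 1500 cells/well. Luminescent read-out followed 30 - 60 minutes at room temperature with DiscoveRx detection reagent.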
MmCpn inh = blocks the Methanococcus maripaludis chaperonin Mm-Cpn | actives 0.031% (n = 330,000) | Potency, µM (titrated, usually from 76.9 µM), without a hit: at the highest dose activity, negative = inhibition, most hits filed as inhibitors | purified Mm-Cpn ATPase, ADP Transcreener TR-FRET; further: potency means the concentration at half of the fitted maximal effect; on the % scale 0 is the no-effect control and ±100 the full control effect; nearly all actives have a fitted effect of over 80% in size
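Measured: ADP formation by purified Mm-CPN. Conditions: 25 nM protein, 10 uM ATP, Tris pH 7.4 with Mg2+, K+ and DTT, 37°C for 30 min. Detection: Transcreener HTRF after 30 min at room temperature.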
PTHR1 ag = activates the human parathyroid hormone receptor PTHR1; Q03431; HEK293 GP2 PTHR1 cells, GloSensor cAMP luminescence, 1 h; Potency, µM (doses to about 115 µM), inactives show at the top dose activation, hits mostly activators; actives 0.075% (n = 410,000); further: potency means the concentration at half of the fitted maximal effect; nearly all actives have a fitted effect of over 55% in size; some results filed as inactive show a strong effect at the top dose; inactives centre near -15; many of its hits are not listed in these tables
Target sequence (Q03431 whole entry, looked up): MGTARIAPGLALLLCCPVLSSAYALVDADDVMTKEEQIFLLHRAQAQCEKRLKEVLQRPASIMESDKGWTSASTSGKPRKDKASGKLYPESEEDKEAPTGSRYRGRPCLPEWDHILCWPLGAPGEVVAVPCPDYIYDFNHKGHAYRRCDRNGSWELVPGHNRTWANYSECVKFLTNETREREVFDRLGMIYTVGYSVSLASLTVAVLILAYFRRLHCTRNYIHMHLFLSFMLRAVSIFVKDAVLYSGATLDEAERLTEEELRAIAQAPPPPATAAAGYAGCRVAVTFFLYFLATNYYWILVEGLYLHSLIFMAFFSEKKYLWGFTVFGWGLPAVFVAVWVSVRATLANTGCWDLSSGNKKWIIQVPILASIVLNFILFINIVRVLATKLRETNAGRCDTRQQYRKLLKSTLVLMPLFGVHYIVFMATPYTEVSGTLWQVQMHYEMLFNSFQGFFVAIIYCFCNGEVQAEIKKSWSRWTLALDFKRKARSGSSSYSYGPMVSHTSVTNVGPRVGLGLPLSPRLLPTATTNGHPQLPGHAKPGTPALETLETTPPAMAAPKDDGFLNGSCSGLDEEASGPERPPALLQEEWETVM
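HEK-293-derived GP2 cells expressing PTHR1 and a GloSensor cAMP reporter, 3,000/well, plated overnight, given luciferin plus IBMX (each 0.5 mM as added) for 1 h at 37 °C, then compound for 1 h at 37 °C. Luminescence was read after 15 min at room temperature.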
CCT chaperon mod = cytosolic chaperonin activity modulation. purified chaperonin ATPase assay, HTRF ADP detection, 30 min. activity change, % (test concentration not listed), hits read low. actives 0.3% (n = 360,000). AID 651819; in the data active means activity change below about -30%; further: on the % scale 0 is the no-effect control and ±100 the full control effect
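TRiC (40 or 20 nM final, by batch activity) in 30 mM Tris pH 7.4, 100 mM KCl, 5 mM MgCl2, 1 mM DTT was treated with compound at 76 uM single dose, then 10 uM ATP, 30 min at 37 °C. ADP was read by HTRF Transcreener.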
Starred values were filed as active, the others as inactive; i = inactive; ? = inconclusive; / = no result given; & = joins results of further samples; [ ] = another dose, or the depositor's remark. Unless noted, the call rests on the fitted dose curve; in most records, active means well fitted curve in the direction sought with a large enough effect; inconclusive means small, poorly fitted or top-dose-only effect, or another doubt; inactive means no such curve, though single readings can be large; an effect the other way counts as inactive or inconclusive. Not all compounds are listed; rates above refer to the full screens.

SMILES | pAkt inh | D3 antag | D3 ag | MmCpn inh | PTHR1 ag | CCT chaperon mod
CCc1nc2c(OCc3ccc(C(F)(F)F)cc3)cccn2c1N(C)C(=O)C1CC1 | i | 15 | 1 | / | -24% | 0.1
CCCCNC(=O)C1(C)CCN1Cc1ccc(C(=O)OCC)cc1 (configuration not stated) | i | -20 | -3 | / | -13% | 1.0
O=S(=O)(c1ccc(NC(=S)Nc2ccccc2)cc1)N1CCOCC1 | i | 8 | -6 | -1% | i | -1.0
COc1cccc(-c2coc3c(C)c4oc(=O)c(CCC(=O)O)c(C)c4cc23)c1 | i | 11 | 5 | 1% | -18% | 1.0
CN(C)C(CNc1ccc(C(F)(F)F)cc1[N+](=O)[O-])c1ccccc1 (configuration not stated) | i | ? | -13 | 0% | -21% | 1.8
CCn1c(SCC(=O)Nc2ccc(Br)cn2)nnc1C1CC1 | i | -8 | -4 | -5% | i | -1.4
O=C(CCl)N=c1sccn1Cc1ccccc1Cl | i | 12 | 6 | 0% | -11% | -0.6
CCOc1ccc(OCC)c(NC(=O)CSc2nnnn2CC)c1 | i | 16 | -1 | 1% | i | -2.2
CCOC(=O)C1Oc2ccccc2C(c2ccc(F)cc2)=C1C(=O)OC (configuration not stated) | i | 10 | -3 | -1% | -13% | -0.5
CN(Cc1ccccc1)C(c1cc2ccccc2o1)c1nnnn1C(C)(C)C (configuration not stated) | i | -10 | -13 | / | i | 0.1
O=C(O)c1cnc(-c2ccccc2)nc1C(F)(F)F | i | -1 | -10 | 1% | i | -51*
COc1ccc(-c2cc(-c3n[nH]c(=S)n3-c3ccccc3OC)[nH]n2)cc1 | i | -12 | -4 | 0% | -13% | 2.3
CC(C)N1CCc2c(sc(NC(=O)CN3C(=O)c4ccccc4C3=O)c2C(N)=O)C1 | i | -17 | -14 | -12% | -19% | -2.3
O=C(O)c1ccc(Nc2cc(Cl)c3nonc3c2[N+](=O)[O-])cc1 | i | -23 | 4 | -4% | -38% | 0.0
CCn1cnnc1SCC(=O)NCC1COc2ccccc2O1 (configuration not stated) | i | 0 | -4 | 0% | -23% | 0.5
Cn1ccc2c(N3CCCCC3)cc3c(c21)C1CCC3O1 (configuration not stated) | i | 20 | 5 | / | i | 0.9
CC1(C(=O)NCc2ccccc2Br)CCN1Cc1ccc2ccccc2c1 (configuration not stated) | i | -15 | 0 | / | -9% | 0.0
Cn1ccc2c(-c3ccc4c(c3)OCCO4)cc3c(c21)C1CCC3O1 (configuration not stated) | i | 3 | 2 | / | -21% | 1.5
Cc1sc2ncnc(SCC(=O)N3CCN(C(=O)c4ccco4)CC3)c2c1C | i | 11 | 14 | 1% | -10%[57.5 µM] | -2.0
Cc1ccc(CNC(=O)C(C)OC(=O)c2cccs2)cc1 (configuration not stated) | i | -16 | 2 | 3% | i | 1.1
C[C@H]1COc2cc(N(C)CCO)ccc2S(=O)(=O)N1 | i | 26 | 5 | / | -25% | 1.0
COc1ccc2cc(S(=O)(=O)N3CCCC3)ccc2c1 | i | -3 | 1 | -1% | -6% | -3.4
COc1ccc(C2CC(=O)Oc3cc4c(cc32)OCO4)cc1 (configuration not stated) | i | 0 | -1 | 2% | -15% | 1.4
CCOC(=O)C1=C(C)NC(C)=C(C(=O)OC)C1c1cccc(Cl)c1Cl (configuration not stated) | i | 25 | 8&5 | -1% | -6% | -1.1
COc1ccc(C2SCC(=O)N2c2c(C)n(C)n(-c3ccccc3)c2=O)cc1OC (configuration not stated) | i | 23 | 1 | -2% | i | 0.0
Cc1cc(C)c(NC(=O)C2CCCN2CCC(C)C)c(C)c1 (configuration not stated) | i | 22 | -3 | 0% | i | -0.6
CCNc1c2c3c(cccc3n(C)c1=O)C(=O)c1ccccc1-2 | i | 6 | 5 | -1% | -16% | 1.1
COc1ccc(OC)c(NC(=O)Cc2coc3cc(C)cc(C)c23)c1 | i | -14 | -9 | -2% | -7%[57.5 µM] | -3.4
O=C(NC1CC1)c1cc(F)c(F)cc1Cl | i | 15 | 2 | 1% | -25% | -1.7
Cc1ccc2nc(-c3cccc(SC4CCCCC4)c3)c(NCc3ccccc3)n2c1 | i | 58&95 | 5&14 | -5% | -37%&-45%[inhibitor] | 0.0&1.1
Cc1sc(NC(=O)CN2CCCC2)nc1-c1ccc2c(c1)CCN2C(=O)c1cccc(F)c1 | i | 14 | 6 | 0% | -26% | -9.4
COc1ccccc1Cc1c(-c2ccc(F)cc2)nc2ccc(Br)cn12 | i | -25 | -15 | / | -8% | -0.8
COc1ccc(-c2cc(=O)c3c(OC)c(OC)c(OC)c(OC)c3o2)cc1 | i | 42 | -8 | / | -26% | 0.3
O=C(Nc1ccc(Br)cc1)C(c1ccccc1)c1ccccc1 | i | 12 | 3 | -2% | -20% | -1.3
Nc1cc(=O)[nH]c(SCC(=O)NNC(=O)Cc2ccccc2)n1 | i | -18 | -4 | 2% | i | -2.1
COc1cccc(C(=O)/C=C/Nc2cccc(O)c2)c1 | i | -24 | -18 | 2% | -57%[inhibitor][57.5 µM] | -3.0
COC(=O)C1=CN(c2cccc(C(F)(F)F)c2)C=C(C(=O)OC)C1c1ccc(O)c(OC)c1 | i | -5 | -5 | 2% | -1% | -1.4
COc1ccc(Cl)cc1NC(=O)COC(=O)Cc1cccs1 | i | 12 | 1 | 1% | i | -0.1
O=C(COC(=O)CNC(=O)c1cccs1)Nc1ccc(C(F)(F)F)cc1[N+](=O)[O-] | i | 7 | 4 | 1% | -18% | 4.0
COc1cc(CO)cc(-c2cc(CO)cc(OC)c2OC)c1OC | -107%* | 26 | 6 | 0% | i | -3.2
COc1ccc(OC)c(-c2csc(N3CCC(c4ccccc4)CC3)n2)c1 | i | 1 | -6 | -4% | i | -0.9
CC1(C(=O)Nc2ccc3c(c2)OCCO3)CCN1Cc1ccc2ccccc2c1 (configuration not stated) | i | 18 | -2 | / | -14% | -0.7
COc1ccc(Cl)cc1NC(=O)Cc1c(F)cccc1Cl | i | -23 | -3 | -1% | -6% | 1.6
CC(=O)NCCC(Cc1ccccc1)c1ccco1 (configuration not stated) | i | 0 | 1 | -1% | -13% | 0.1
COc1ccc(C(=O)/C=C/Nc2ccc(S(=O)(=O)Nc3cccc(C(C)=O)c3)cc2)cc1 | i | 20 | 17 | -13% | -24% | -2.5
O=C(Cc1c(F)cccc1Cl)Nc1ccc(S(=O)(=O)Nc2nccs2)cc1 | i | 10 | 4 | 1% | -14% | -1.2
CCOC(=O)c1ccc(NC(=O)CCC2COc3ccccc3O2)cc1 (configuration not stated) | i | 23 | 7 | -4% | i | 1.1
COc1c(C)cc(S(=O)(=O)N2CCCC2)c(C)c1C | i | -7 | 23 | 1% | i | 2.3

Arranged by heavy-atom count (high to low): 6 of the compounds above
SMILES | pAkt inh | D3 antag | D3 ag | MmCpn inh | PTHR1 ag | CCT chaperon mod
COc1ccc(C(=O)/C=C/Nc2ccc(S(=O)(=O)Nc3cccc(C(C)=O)c3)cc2)cc1 | i | 20 | 17 | -13% | -24% | -2.5
CCc1nc2c(OCc3ccc(C(F)(F)F)cc3)cccn2c1N(C)C(=O)C1CC1 | i | 15 | 1 | / | -24% | 0.1
COc1ccccc1Cc1c(-c2ccc(F)cc2)nc2ccc(Br)cn12 | i | -25 | -15 | / | -8% | -0.8
CCCCNC(=O)C1(C)CCN1Cc1ccc(C(=O)OCC)cc1 (configuration not stated) | i | -20 | -3 | / | -13% | 1.0
COc1ccc(Cl)cc1NC(=O)Cc1c(F)cccc1Cl | i | -23 | -3 | -1% | -6% | 1.6
COc1c(C)cc(S(=O)(=O)N2CCCC2)c(C)c1C | i | -7 | 23 | 1% | i | 2.3

Further results
SMILES | pAkt inh | D3 antag | D3 ag | MmCpn inh | PTHR1 ag | CCT chaperon mod
Cc1cccc(C(=O)NCC(=O)NCC2COc3ccccc3O2)c1 (configuration not stated) | i | -1 | -6 | 2% | i | 0.3
NC(CCc1ccccc1)c1csc(Nc2ccccn2)n1 (configuration not stated) | i | 17 | -13 | / | i | -0.4
COC(=O)c1ccc2nc(-c3ccc(OC)c(OC)c3)c(CC3CCCCC3)n2c1 | i | 53 | 8 | / | -62%[inhibitor] | 2.2
COc1ccc(N/C=C/C(=O)c2ccc(OC)c(OC)c2)cc1 | i | 2 | 14 | -2% | i | -1.8
Cc1cc(C)c(NC(=O)C2CCCCN2C)c(C)c1 (configuration not stated) | / | 28 | 14 | 1% | -8%[57.5 µM] | 2.6
Cc1cccc(C)c1OCC(=O)NCC1COc2ccccc2O1 (configuration not stated) | i | 0 | -3 | 1% | -2% | 1.9
COc1cnc(-c2ccccc2)nc1Sc1ccccc1 | i | 0 | -9 | 0% | i | -2.3
O=[N+]([O-])c1ccc2c3n([n+]([O-])c2c1)CCN=C3c1ccc(Cl)cc1 | i | -10 | 2 | -2% | i | -0.3
CCOc1ccccc1NS(=O)(=O)c1ccc2[nH]c(=O)[nH]c2c1 | i | -14 | -1 | 0% | -9% | -1.1
COC(=O)c1cn(C(=O)c2ccc(C)cc2C)c2ccccc12 | i | -2 | 1 | 3% | -34%[inhibitor] | 0.7
COc1ccc(OC)c(CN(CCN2CCOCC2)S(=O)(=O)c2ccc(NC(C)=O)cc2)c1 | i | -7 | 4 | -1% | 14% | -1.0
O=C(CN1CCN(Cc2ccccc2)CC1)N/N=C/C=C/c1ccccc1[N+](=O)[O-] | i | 5 | -2 | 0% | -17% | -1.7
CNC(=S)NNc1ccccc1[N+](=O)[O-] | i | -14 | -8 | -6% | i | 1.5
CC(=O)N1CCc2cc(C(=O)CN3CCN(c4ccccn4)CC3)ccc21 | i | -4 | 68* | 0% | -10% | 0.1
COc1ccc(S(=O)(=O)N2CCCC2)c(Cl)c1Cl | i | 0 | 8 | 3% | -1% | 1.6
CCCC(=O)N1CCC1(C)C(=O)Nc1scc(C)c1C#N (configuration not stated) | i | 0 | -5 | / | -8% | 0.9
CCCCc1c(-c2ccccc2OC)ncn1CCc1cccc(Cl)c1 | i | 20 | -5 | / | -46%[inhibitor] | 0.6
COc1ccc(N/N=C(/C(N)=O)C2=NC(C)(C)Cc3ccccc32)cc1 | i | 2 | -3 | 0% | -13% | -2.2

Three records drawn at random from those above, as already listed:
SMILES | pAkt inh | D3 antag | D3 ag | MmCpn inh | PTHR1 ag | CCT chaperon mod
COc1ccc(S(=O)(=O)N2CCCC2)c(Cl)c1Cl | i | 0 | 8 | 3% | -1% | 1.6
CCCC(=O)N1CCC1(C)C(=O)Nc1scc(C)c1C#N (configuration not stated) | i | 0 | -5 | / | -8% | 0.9
CC(=O)N1CCc2cc(C(=O)CN3CCN(c4ccccn4)CC3)ccc21 | i | -4 | 68* | 0% | -10% | 0.1

Source: PubChem BioAssay (National Center for Advancing Translational Sciences (NCATS))
